Screening data from PubChem BioAssay.
CapD inh – CapD enzyme inhibition. purified CapD enzyme, fluorescence intensity read-out; hits give low values; some hits fall short of the stated cut. z-score (concentration not given with the values). 140,000 tested, 0.23% active;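 active = z-score under -4 in either of two replicates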;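 also: stock transfer was 100 nL into about 40 µL; score is relative to mean and spread of the plate; one replicate is shown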
AID504770 – E. coli YBA685 growth inhibition, screen for V. cholerae RctB inhibitors; z-score (concentration not given with the values); AID 504770; E. coli YBA685 rctB-dependent plasmid, OD600 growth, 3 h; hits give low values; 130,000 tested, 0.27% active;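 active = z-score under -2 on both plates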;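 also: wells of about 30 µL received 100 nL stock; score is relative to mean and SD of the test wells; the first replicate is given; strong numbers were not always called active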
Active calls of the source: *; i = inactive; x = no result given. No enrichment for hits; about 0.41% have a hit in one of these screens.

SMILES	CapD inh	AID504770
CS(=O)(=O)N1CCN(CC(=O)NC2CCCCC2)CC1	x	-0.15
CC(C)c1ccc(-c2noc(C3CCCN(C(=O)Cc4cccs4)C3)n2)cc1 (centres undefined)	x	-0.15
O=C(Cn1c(-c2cccs2)cc2ccccc21)N1CCC2(CC1)OCCO2	54	-0.45
NC(=O)c1cc2cccc3c2n(c1=O)CC3	10	x
C=CCn1c(COc2ccc(OC)cc2)nc2ccccc21	0.01	-0.35
O=C(Oc1cc(=O)oc2ccccc12)c1ccco1	-0.025	-0.05
CCCc1ccc(OC(C)C(=O)Nc2sc3c(c2C#N)CCCCC3)cc1 (centres undefined)	-0.11	x
CC(C)=NOCC(=O)Nc1ccccc1C	0.46	0.55
CCc1ccc(N2CC(O)(c3ccc(OC)cc3)[N+]3=C2CCCC3)cc1 (centres undefined)	-0.42	x
COC(=O)NCCOc1cc(C)ccc1C	-0.39	0.6
CCOC(=O)c1oc2ccccc2c1CSc1nnc(-c2ccc(C)cc2)n1N	x	1.5
CCOc1ccc(C2C(N3C(=O)c4c(Cl)c(Cl)c(Cl)c(Cl)c4C3=O)C(=O)N2c2cc(Cl)ccc2C)cc1 (centres undefined)	-0.33	x
Cc1cccc(C)c1Nc1n[nH]c(=S)s1	-0.26	x
CCCCOc1cc(OCCCC)c2c3c(c(=O)oc2c1)CCCC3	32	x
Cc1n[nH]c(C)c1-c1nc2ccccc2[nH]1	x	0.75

Exported with bars between the fields: 2 of the compounds above
Compound | CapD inh | AID504770
O=C(Oc1cc(=O)oc2ccccc12)c1ccco1 | -0.025 | -0.05
CCCc1ccc(OC(C)C(=O)Nc2sc3c(c2C#N)CCCCC3)cc1 (centres undefined) | -0.11 | x

(next part)
SMILES	CapD inh	AID504770
Cc1ccc(C)c(N2CCN(CCCNC(=O)c3cn4c5c(ccc(Cl)c5c3=O)OC(C)C4)CC2)c1 (centres undefined)	49	-0.6
Cc1ccc(C2(O)CC(C(F)(F)F)=NN2C(=O)c2cccc(Cl)c2)cc1 (centres undefined)	0.74	x
Fc1ccc(-c2nc3ccc(C(F)(F)F)cc3nc2-c2ccc(F)cc2)cc1	-0.34	x
COc1ccc(N2CCN(C=C3C(=O)N(C)C(=O)N(C)C3=O)CC2)cc1	x	-0.2
COC(=O)c1ccc(C2C(C#N)=C(N)Oc3c2c(C)nn3-c2cccc(Cl)c2)cc1 (centres undefined)	-0.54	x
Cc1nnc(SCCNS(=O)(=O)c2ccccc2)s1	x	-0.8
CCOC(=O)c1c(C)n(-c2ccccc2)c2c1cc(OC(=O)c1ccc(C)cc1)c1ccccc12	0.15	x
O=S(=O)(c1ccc(Cl)cc1)c1cnn(S(=O)(=O)c2ccccc2)c1-c1ccc(Cl)cc1	9.3	0.25
O=C(COc1ncnc2ccccc12)Nc1ccccc1	0.3	-0.2
CCOC(=O)c1c(O)c(O)c(C(=O)OCC)n1-c1ccc(OC)cc1	6.8	0.45
Cc1oc(S(=O)(=O)N2CCCC2)cc1C(=O)NCCN1CCNC1=O	0.71	-0.45
CCSc1nnc(-c2ccccc2)n1Cc1ccc2c(c1)OCO2	x	-0.35
CCc1ccc(OCC(O)CN)cc1 (centres undefined)	x	1.1
O=C(Nc1nn2cnnc2s1)C1CCCC1	x	-0.6
CC(C)N(Cc1ccccc1)S(=O)(=O)N(C)C	0.31	-0.4

An excerpt from above in order of molecular weight, high to low:
SMILES	CapD inh	AID504770
O=S(=O)(c1ccc(Cl)cc1)c1cnn(S(=O)(=O)c2ccccc2)c1-c1ccc(Cl)cc1	9.3	0.25
COC(=O)c1ccc(C2C(C#N)=C(N)Oc3c2c(C)nn3-c2cccc(Cl)c2)cc1 (centres undefined)	-0.54	x
O=C(COc1ncnc2ccccc12)Nc1ccccc1	0.3	-0.2
CC(C)N(Cc1ccccc1)S(=O)(=O)N(C)C	0.31	-0.4
O=C(Nc1nn2cnnc2s1)C1CCCC1	x	-0.6

Next section.
SMILES	CapD inh	AID504770
O=S(=O)(c1cccs1)N1CCN(c2cccc(C(F)(F)F)c2)CC1	x	-0.95
O=C(NCCCN1CCOCC1)c1nn2c(c1Cl)NC(c1ccc(Cl)cc1)CC2C(F)(F)F (centres undefined)	-0.44	x
Cc1cccc(N=C(c2ccccc2)c2c(C)[nH]n(-c3ccccc3)c2=O)c1	-0.23	x
COc1ccc2o/c(=N\c3sc4c(c3C(N)=O)CCCC4)c(C(N)=O)cc2c1	0.39	x
CC(=O)Nc1ccc2nc(NC(=O)c3ccc(C#N)cc3)sc2c1	-1.7	0
CCCCN(CC)S(=O)(=O)c1ccc2c(c1)CCN2C(C)=O	-0.055	0.15
OCC1CCCN1CC1CC1 (centres undefined)	0.035	-0.85
COc1ccc(C2CC(c3ccccc3)=Nc3ccccc3N2)cc1 (centres undefined)	-0.47	x
CCOC(=O)c1oc2nc(-c3ccccc3)cc(-c3ccco3)c2c1N	4	0.65
N#Cc1cc2c(nc1SC1CC(=O)N(c3ccccc3)C1=O)CCCCC2 (centres undefined)	-0.19	x
Cc1[nH]nc(CSSCc2n[nH]c(C)c2C(=O)NN)c1C(=O)NN	x	-0.4
Oc1oc(-c2cccs2)nc1/C=C1\C=Nc2ccccc21	-0.22	-0.55
CC(OC(=O)C1CCCN1S(=O)(=O)c1ccc(Cl)cc1)C(=O)Nc1ccc(C(N)=O)cc1 (centres undefined)	x	-0.6
CCN(CC)C(=O)CSc1nc2nc(C)cc(C)c2c(=O)[nH]1	65	-0.5
O=C(NCCCn1ccnc1)C1CCN(S(=O)(=O)c2ccc(F)cc2)CC1	x	-0.75

Record cards, as listed above. Values in the order: CapD inh | AID504770
Results for CCCCN(CC)S(=O)(=O)c1ccc2c(c1)CCN2C(C)=O : -0.055 | 0.15
Results for CC(=O)Nc1ccc2nc(NC(=O)c3ccc(C#N)cc3)sc2c1 : -1.7 | 0
Results for CC(OC(=O)C1CCCN1S(=O)(=O)c1ccc(Cl)cc1)C(=O)Nc1ccc(C(N)=O)cc1 (centres undefined) : x | -0.6

New compounds follow.
SMILES	CapD inh	AID504770
Cc1cc2nnc(SCC(N)=O)n2c2ccccc12	6.8	-0.85
CCCCn1cnc2c(c1=O)c1nc3ccccc3nc1n2CCc1ccc(OC)cc1	6.9	-0.25
Cc1c(NC2=CC(=O)CCC2)c(=O)n(-c2ccccc2)n1C	-0.38	-0.15
CNS(=O)(=O)c1cc(-c2nn(C)c(=O)c3ccccc23)ccc1C	x	1.6
Cc1oc(-c2ccc(Cl)cc2)nc1CN1CCC(C(=O)NC2CCCCC2)CC1	0.26	0.45
Cc1ccc(C(=O)NNC(=O)c2cc3cc([N+](=O)[O-])ccc3s2)cc1	-0.06	x
O=C(NCc1ccccn1)c1ccc(-c2nc3ccccc3s2)s1	x	0.5
O=C(CCC(=O)N1CCN(c2ccc(Cl)c(Cl)c2)CC1)c1ccccc1	0.62	0.25
COCC(C)NCc1cc(=O)oc2cc(C)c(C(C)C)cc12 (centres undefined)	x	-0.9
Nc1cccc2c1C(=O)N(CCO)C2=O	-0.01	0.45
CCSC1=N/C(=C\c2cccc(OC)c2)C(=O)S1	-0.015	-1.3
COc1ccc(NC(=O)C(CC(C)C)NS(=O)(=O)c2ccc3nc(C)sc3c2)c(OC)c1 (centres undefined)	0.23	0.45
CCc1c(C)c(C#N)c2nc3ccccc3n2c1NCc1ccccc1	0.26	0.3
Cc1ccc(NC(=O)c2cnc3ccc(S(=O)(=O)N(C)C4CCCCC4)cc3c2Cl)cc1F	-3.1	-0.15
O=C(c1csc(-c2cnccn2)n1)N1CCN(C/C=C/c2ccccc2)CC1	0.2	x
CCCCC1=NN(C(=O)COc2ccccc2C)C(O)(C(F)(F)F)C1 (centres undefined)	0.21	x
COc1ccc2cc(C(=O)Nc3ccc(OC)c(OC)c3)c(=Nc3ccc(C(=O)O)cc3)oc2c1	-3.4*	x
Cc1c(C)n(C(=O)CN2CCC(C(N)=O)CC2)c2ccccc12	-0.66	-0.6
Nc1ncc(C(=O)OCC2CC2)c(C(F)(F)F)n1	2.3	-0.25
CCN(CC)S(=O)(=O)c1ccc(Nc2ccc(-c3ccc4c(c3)OCCO4)nn2)cc1	x	0.25
CNC(=O)COc1ccc(S(=O)(=O)N2CCOCC2)cc1Cl	-0.25	-0.15
CC(=O)c1cc2c3c(c1)C1C=CCC1C(c1cccc([N+](=O)[O-])c1)N3CC1CC=CC21 (centres undefined)	0.085	x
CC1CCN(CC(=O)c2cccs2)CC1	x	0.45
c1ccc(-c2[nH]ncc2-c2cnc3ccccc3n2)cc1	1.2	x
CCc1nc2nonc2c2nc3ccccc3n12	21	-0.5
CCSc1ncc(Cl)c(C(=O)N2CCN(c3cccc(Cl)c3)CC2)n1	0	-0.2
Cc1ccc(CNC(=O)CCc2c(C)nn3cnnc3c2C)cc1	0.69	0.3
CC(=O)N/C(=C\c1ccccc1)C(=O)Nc1cc(C)cc(C)c1	i	-0.85
O=C(CSc1nc2ccccc2c(=O)[nH]1)c1ccc2c(c1)OCCO2	x	-0.8
c1ccc(CCNCc2ccc3c(c2)OCO3)cc1	-0.07	0.15
O=C(NCCn1cc(SCC(=O)N2CCOCC2)c2ccccc21)c1ccccc1	0.54	-1.2
CCOC(=O)c1cnc2c(CC)cccc2c1NCCO	x	-0.4
CCn1cc(-c2csc(N)n2)c(C)n1	x	-0.75
COc1ccc2nc(NC(=O)COC(=O)CC(NC(=O)c3ccccc3)c3ccccc3)sc2c1 (centres undefined)	0.81	x
CN1CCN(P(=O)(c2ccccc2)c2nc3ccccc3s2)CC1 (centres undefined)	x	1.9
CC1(C)NNC(=S)NC1=O	x	0.35
O=[N+]([O-])c1ccc(-c2nc(NC3CCCCC3)c3ccccc3n2)cc1	-0.34	x
CSc1ccccc1N1CC(C(=O)O)CC1=O (centres undefined)	-0.075	0.45
Nc1ccc(C(=O)O)cn1	x	0.65
Cc1nnsc1-c1nc2ccccc2[nH]1	82	-1.1
NC(=O)c1sc2ccccc2c1Cl	0.66	x
CCOC(=O)CN1CCN(c2ccc(C(F)(F)F)cc2N)CC1	0.85	0.2
O=C1CSc2cc(S(=O)(=O)N3CCN(c4ccccc4)CC3)ccc2N1	-0.29	-0.1
O=C(CN1C2=NCCCN2c2ccccc21)c1cccc(Br)c1	-0.57	x
CC1=CC(=O)C(C(=O)/C=C/c2ccc(N(C)C)cc2)C(=O)O1 (centres undefined)	x	0.8
COc1ccccc1/C=N/NC=O	x	0.3
c1ccc(N=C2NN=C(c3ccccc3)CS2)cc1	x	0.85
COC(=O)C1=C(C)NC(C)=C(C(=O)OC)C1c1ccc(OC)cc1	12	x
N#CC(c1ccc(Cl)cc1)c1ccc(C(=O)c2ccc(F)cc2)cc1 (centres undefined)	0.15	x
Cc1ccc(Cn2c(SCC(=O)N(C)C)nc3ccccc3c2=O)cc1	x	-0.25
CC(C)(C)c1ccc(OC(=O)Cn2c(C(F)(F)F)nc3ccccc32)cc1	-0.6	x
Cc1nn(C)c(C)c1NC(=S)NC1CCCC1	0.41	-0.15
Nc1ccccc1-n1c(-c2ccccc2)c2c(c1-c1ccc(Cl)cc1)C(=O)c1ccccc1C2=O	-0.15	x
CCSc1nc2c(cnn2-c2ccc(Cl)cc2)c(=O)[nH]1	-0.2	-0.8
Cc1ccc(N=C(N)c2ccccc2)cc1	-0.42	1.1
c1ccc(-c2cccc(-c3ccccn3)n2)nc1	0.73	-1.4
N#Cc1c(F)cccc1NCc1cccs1	97	-0.55
CC(C)N(C(=O)CSCc1nc2ccccc2[nH]1)c1ccccc1	0.24	0.2
COc1ccc(C2=NN(C(=O)COc3ccc(NC(=O)c4ccco4)cc3)C(c3ccco3)C2)cc1 (centres undefined)	x	-0.95
CC(Nc1ccccc1CO)C(=O)N1CCOCC1 (centres undefined)	x	0.2
Continuation.
SMILES	CapD inh	AID504770
Cc1c2cnn(-c3ccccc3)c(=O)c2c(C)n1CC(=O)N1CCCCC1	0.21	-0.6
CCOC(=O)C1=C(C)SC2=NS(=O)(=O)CCN21	x	-1.4
CCOC(=O)C1C(c2ccccc2)C(C(=O)OCC)C1c1ccccc1 (centres undefined)	-0.29	2.2
CNc1ncc(C(=O)C(C)(C)C)s1	-0.64	0.15
O=C1c2oc3ccccc3c(=O)c2C(c2ccc(O)cc2)N1c1ccccn1 (centres undefined)	-0.61	0.85
Cn1c(=NC(=Nc2ccccc2)c2ccccc2)sn(-c2ccccc2)c1=S	-0.37	x
CCN(CCN(C)C)C(=O)Cn1ncc2c1-c1ccccc1OC2	0.48	-0.55
Cc1ccnc(Sc2ccc(NS(=O)(=O)c3ccc4oc(=O)ccc4c3)cc2)n1	0.085	x
Cc1ccc(Nc2cn[nH]c(=S)n2)cc1	x	-0.2
Cc1c(C(=O)N2CCN(c3ccc(F)cc3)CC2)sc2ncn(CC(=O)Nc3cccc(C(F)(F)F)c3)c(=O)c12	-0.61	x
Cc1csc(=O)n1CCC(=O)OCC(=O)c1ccc2ccccc2c1	x	-2.6
O=C(NCc1ccccc1)c1cc(=O)nc2sc(-c3ccccc3)nn12	x	0.75
CCCCc1nn2c(=O)cc(O)nc2s1	-1	-0.1
CS/C(N)=N\C(=S)Nc1cccc(Cl)c1	-1.2	x
CN1CCN(C(=O)c2ccc(NCc3ccc(F)cc3)c(S(=O)(=O)Nc3cc(F)ccc3F)c2)CC1	0.15	x
CCOC(=O)c1c(C)[nH]c(C(=O)N/N=C\c2ccccc2)c1C	x	2.2
COc1ccc(-c2nnc(NC(=O)c3ccc(S(=O)(=O)N4CCCCC4)cc3)o2)cc1	x	0.55
O=C1/C(=C/c2cccs2)CC/C1=C\c1cccs1	0.67	1.1
CCOC(=O)C1=C(C)NC2=C(C(=O)CC(c3ccc(OC)c(OC)c3)C2)C1c1ccccc1Br (centres undefined)	8.2	x
O=c1oc2ccccc2c(O)c1/C=N/c1ncccn1	-0.065	-0.4

Filtered by structure, those above with bromine (2)
SMILES	CapD inh	AID504770
O=C(CN1C2=NCCCN2c2ccccc21)c1cccc(Br)c1	-0.57	x
CCOC(=O)C1=C(C)NC2=C(C(=O)CC(c3ccc(OC)c(OC)c3)C2)C1c1ccccc1Br (centres undefined)	8.2	x
